Screening results deposited in PubChem by ICCB-Longwood Screening Facility, Harvard Medical School.
PV pol inh – poliovirus RdRp elongation inhibitors, primary screen, biochemical, fluorescence polarization, total intensity | Genome polyprotein (Poliovirus type 1 (strain Mahoney)), P03300 | poliovirus polymerase elongation; hits give low values | % elongation, % (compound at 16.7 µg/mL) | actives 0.66% (n = 150,000) | AID 588519, 2011; in the data active = % elongation below about 90%; also: some results filed as inactive read as strong as hits
Target sequence (P03300 1749-2209 limits assumed): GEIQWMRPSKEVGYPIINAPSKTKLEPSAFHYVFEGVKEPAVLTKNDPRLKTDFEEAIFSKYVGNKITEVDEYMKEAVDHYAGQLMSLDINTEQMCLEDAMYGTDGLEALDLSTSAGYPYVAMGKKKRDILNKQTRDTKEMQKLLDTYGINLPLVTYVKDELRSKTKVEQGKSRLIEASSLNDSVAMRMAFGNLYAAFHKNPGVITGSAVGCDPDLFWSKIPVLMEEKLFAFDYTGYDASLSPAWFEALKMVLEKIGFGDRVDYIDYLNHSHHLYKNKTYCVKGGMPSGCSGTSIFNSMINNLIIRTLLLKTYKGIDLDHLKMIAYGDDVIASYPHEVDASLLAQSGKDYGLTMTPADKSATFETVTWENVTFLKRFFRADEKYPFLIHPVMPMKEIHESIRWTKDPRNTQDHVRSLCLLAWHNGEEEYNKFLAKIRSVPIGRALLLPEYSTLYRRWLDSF
MenB inh – M. tuberculosis MenB inhibitors, primary screen, biochemical, absorbance | MenB enzyme assay, absorbance read-out; some hits fall short of the stated cut | inhibition, %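 (about 12 µg/mL by stock and volumes)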 | 1,4-dihydroxy-2-naphthoyl-CoA synthase (Mycobacterium tuberculosis (strain ATCC 25618 / … | AID 540299, 2011 | actives 0.43% (n = 100,000);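 active = mean of two replicates above 30%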;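 also: 0% = no compound and 100% = wells with inactive enzyme; the first replicate is given; strong numbers were not always called active; inactives centre near -10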
Target sequence (P9WNP5 whole entry, looked up): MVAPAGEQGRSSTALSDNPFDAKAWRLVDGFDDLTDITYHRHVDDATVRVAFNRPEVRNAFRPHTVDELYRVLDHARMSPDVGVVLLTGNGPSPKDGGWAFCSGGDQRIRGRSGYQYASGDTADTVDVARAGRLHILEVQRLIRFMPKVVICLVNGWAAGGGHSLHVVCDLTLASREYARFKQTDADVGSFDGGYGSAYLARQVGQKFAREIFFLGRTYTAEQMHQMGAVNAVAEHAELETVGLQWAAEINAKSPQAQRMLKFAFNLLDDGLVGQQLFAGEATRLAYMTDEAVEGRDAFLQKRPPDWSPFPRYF
Mtb MbtI inh – MbtI salicylate synthase inhibitors, primary screen, biochemical, fluorescence intensity; purified MbtI enzyme, fluorescence intensity read-out; P9WFX0; actives 0.89% (n = 100,000); inhibition, %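 (about 17 µg/mL by stock and volumes)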;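 active = above 50% in both replicates, above 80% if mildly self-fluorescent; inactive = the rest, strongly fluorescent compounds included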;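 also: 0% = mean of negative and 100% = mean of positive controls; one replicate is shown; some compounds called inactive have numbers as strong as hits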
PV pol inh intensity – second read-out of PV pol inh, no call of its own (marks repeat the call); % elongation; measured here: total intensity read-out; formula for this scale not given here;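 total fluorescence in place of polarization; lower means less elongation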
* hit, by the source's call; i = inactive; / = not tested or not shown.

Screens by letter – A = PV pol inh; B = PV pol inh intensity; C = MenB inh; D = Mtb MbtI inh
structure: O=C(CSc1nnc(-c2c[nH]c3ccccc23)o1)C12CC3CC(CC(C3)C1)C2
  A: 99	B: 108	C: -4	D: -6

structure: COc1ccc2c(c1)CC/C(=C/c1ccccn1)C2=O
  A: 101	B: 101	C: 3	D: 37

structure: Cc1cccn2cc(-c3cccc(NC(=O)c4ccccc4)c3)nc12
  A: 100	B: 99	C: -12	D: -2

structure: CCCCC(CC)C1OC(C)CC(C)(C)O1 (stereo unspecified)
  A: 100	B: 99	C: 15	D: 10

structure: O=C(CSc1nc2ccccc2n1Cc1ccccc1)N/N=C/c1cccnc1
  A: 104	B: 101	C: -4	D: 0

structure: COc1ccc(Cl)c2c1NC(c1ccncc1)C1CC=CC21 (stereo unspecified)
  A: 103	B: 102	C: -41	D: -24

structure: CN(CCO)S(=O)(=O)c1ccc2c(c1)Cc1cc(S(=O)(=O)N(C)CCO)ccc1-2
  A: 101	B: 104	C: 11	D: 25

structure: COc1ccc(S(=O)(=O)N2CCC(C(=O)NC3CC3)CC2)cc1Cl
  A: 102	B: 103	C: -16	D: -3

structure: COc1ccc(C2CCCCCN2C(=O)Nc2ccccc2)cc1 (stereo unspecified)
  A: 102	B: 106	C: -10	D: -4

structure: O=C(CC1CCCCC1)NC1CCCC1
  A: 99	B: 101	C: -31	D: -24

structure: CC(C)NC(=O)N1CCc2c([nH]c3ccccc23)C1c1ccc(F)cc1 (stereo unspecified)
  A: 102	B: 101	C: -17	D: -8

structure: CCC(=O)N1CCN(c2ccc(N)cc2)CC1
  A: 104	B: 101	C: -53	D: 0

structure: COc1ccc(Br)cc1Cc1nc(C)cc(Cl)n1
  A: 102	B: 102	C: 1	D: -15

structure: CC(C)(C)C(=O)Cn1c(C(=O)O)cc2ccccc21
  A: 103	B: 103	C: -16	D: 16

structure: CC(=O)Nc1c(-c2cccc(C(F)(F)F)c2)c(C(F)(F)F)nn1C
  A: 104	B: 108	C: -10	D: -11

structure: CC1(c2ccccc2)CC(C)(C)N(C(=O)c2ccco2)c2ccccc21 (stereo unspecified)
  A: 107	B: 109	C: -9	D: /

structure: O=C(O)C1CC=CCC1C(=O)Nc1ccc(C(=O)N2CCCc3ccccc32)cc1 (stereo unspecified)
  A: 100	B: 100	C: -4	D: 1

structure: COC(=O)c1cc(COC(=O)c2ccc3ccccc3n2)oc1C
  A: 105	B: 108	C: -37	D: 8

structure: Cc1ccc2nc(-c3ccc(NC(=O)C(C)C)cc3)oc2c1
  A: 99	B: 102	C: -31	D: i

structure: Cc1cccc(NC(=O)Cc2ccc(NC3=NC4CS(=O)(=O)CC4S3)cc2)c1 (stereo unspecified)
  A: 99	B: 104	C: 8	D: 14

structure: O=C(/C=C/c1ccccc1)Nc1nnc(CSCc2ccccc2F)s1
  A: 103	B: 107	C: -24	D: 6

structure: NS(=O)(=O)c1ccc(CCNC(=S)NC2CCCC2)cc1
  A: 102	B: 104	C: -14	D: -14

structure: Cc1cc(N2CCN(c3ccccc3)CC2)n2ncnc2n1
  A: 102	B: 105	C: -8	D: -2

structure: O=C(/C=C/c1ccccc1)NC(=S)Nc1cccnc1Cl
  A: 104	B: 101	C: -25	D: -3

structure: O=C(OCC(=O)N1CCCC1=O)c1cccc(S(=O)(=O)NCc2ccccc2)c1
  A: 112	B: 113	C: -1	D: -3

structure: CCOc1ccc(N2C(=O)CC(N3CCC(O)(c4ccc(Cl)cc4)CC3)C2=O)cc1 (stereo unspecified)
  A: 102	B: 101	C: -2	D: -1

structure: CC(C)(C)C(=O)NC(=S)Nc1cc(C(F)(F)F)cc(C(F)(F)F)c1
  A: 99	B: 99	C: -13	D: -1

structure: O=C(Cn1nc2sc3ccccc3n2c(=O)c1=O)c1cccs1
  A: 102	B: 102	C: -5	D: -37

structure: CSc1ccc(C2C3C(=O)NC(=O)C3ON2c2ccccc2)cc1 (stereo unspecified)
  A: /	B: /	C: -15	D: -2

structure: NC(=O)COC(=O)C1(c2ccc(Cl)cc2)CCCC1
  A: 104	B: 102	C: /	D: 0

structure: c1ccc(CC2CCN(c3ncnc4c3oc3ccccc34)CC2)cc1
  A: 101	B: 104	C: 1	D: 106

structure: CO/C(N)=N/C(=S)Nc1ccc(C(C)C)cc1
  A: 102	B: 103	C: -13	D: -13

structure: COc1ccc(CCN2C(=O)CCC2(C)C(=O)NCc2ccccc2)cc1OC (stereo unspecified)
  A: 100	B: 103	C: -11	D: -1

structure: CCC(C)N(C(=O)CSc1nc(N)c2c3c(sc2n1)CCCC3)C1CCS(=O)(=O)C1 (stereo unspecified)
  A: 101	B: 104	C: -31	D: -4

structure: Cc1ccc(OCC(=O)/C=C2\N(C)c3ccccc3C2(C)C)cc1
  A: 130	B: 160	C: -39	D: 10

structure: CCCCN(C)C(=O)Cn1ncc2c3ccccc3n(CCC)c2c1=O
  A: 104	B: 108	C: -35	D: 14

structure: CSc1ccccc1C(=O)NCC1COc2ccccc2O1 (stereo unspecified)
  A: 101	B: 103	C: -30	D: 9

structure: COC(=O)COc1ncnc2sc3c(c12)CCC3
  A: 100	B: 94	C: -35	D: 9

structure: CCOC(=O)c1sc2nc3n(c(=O)c2c1C)N=C(c1cc2cc(Cl)ccc2oc1=O)CS3
  A: 102	B: 103	C: 3	D: -6

structure: CCS(=O)(=O)c1ccc(O)c(NC(=O)CC2(CC(=O)O)CCCC2)c1
  A: 102	B: 101	C: -10	D: -4

structure: COc1cc(O)c(C(=O)Cc2ccc(Cl)cc2)c(OC)c1
  A: 103	B: 111	C: -18	D: /

structure: Cc1c(CCC(=O)O)c(=O)oc2cc3occ(C(C)(C)C)c3cc12
  A: 101	B: 103	C: -5	D: -19

structure: O=C(O)C1CC=CCC1C(=O)NCCc1csc(-c2ccccc2)n1 (stereo unspecified)
  A: 102	B: 103	C: 2	D: 12

structure: CC(C)(C)NC(=O)NCCC1CCCCN1S(=O)(=O)c1ccccc1 (stereo unspecified)
  A: 101	B: 104	C: -19	D: -10

structure: C[C@@H](C(=O)NCc1ccccc1Cl)N1C(=O)C2CC=CCC2C1=O (stereo partly specified)
  A: 102	B: 111	C: -6	D: -2

structure: CC1=CC(=C(C#N)C#N)C=C(C)N1CCc1ccc(S(N)(=O)=O)cc1
  A: 97	B: 99	C: -21	D: 94

structure: Cc1csc(SCc2ccccc2C(=O)OCc2nc3scc(-c4ccco4)c3c(=O)[nH]2)n1
  A: 111	B: 113	C: -6	D: 12

structure: CC1CCCC(NCC(O)COCc2ccc3c(c2)OCO3)C1C (stereo unspecified)
  A: 107	B: 107	C: -30	D: -4

structure: CCn1c(CCC(N)=O)n[nH]c1=S
  A: /	B: /	C: -4	D: -2

structure: CC(C)n1nc(C(=O)Nc2ccc3c(c2)CCC3)c2ccccc2c1=O
  A: 103	B: 103	C: -17	D: -7

New compounds follow.
Screens by letter – A = PV pol inh; B = PV pol inh intensity; C = MenB inh; D = Mtb MbtI inh
structure: O=C(Cc1ccc(Cl)cc1Cl)N1CCN(c2ccccc2O)CC1
  A: 103	B: 100	C: /	D: -11

structure: Cc1ccc(S(=O)(=O)CCC(=O)OCn2nnc3ccccc3c2=O)cc1
  A: 102	B: 99	C: 2	D: 19

structure: OCCc1c(-c2ccccc2)n(Cc2ccccc2)c2ccccc12
  A: 101	B: 104	C: -23	D: 111

structure: O=C1Cc2cc(S(=O)(=O)NCc3cccs3)ccc2N1
  A: 103	B: 104	C: -17	D: -20

structure: C=CCSc1nnc2[nH]c(=O)cc(N)n12
  A: 102	B: 105	C: 12	D: 2

structure: CCc1nc2ccccc2c(C(=O)OCC(=O)N2C(C)CCCC2C)c1C (stereo unspecified)
  A: 106	B: 107	C: -23	D: -15

structure: CCN(CC)Cc1ccc(C(=O)O)o1
  A: 101	B: 101	C: 19	D: 2

structure: CC(=O)[C@H]1CC[C@H]2[C@@H]3CC=C4C[C@@H](O)CC[C@]4(C)[C@H]3CC[C@]12C
  A: 103	B: 101	C: -5	D: -7

structure: CC(C)C(=O)Nc1ccc(NC(=O)c2ccccc2)nc1
  A: 99	B: 99	C: 31	D: 36

structure: Nc1cc(C(=O)OCC(=O)N2CCc3ccccc32)ccc1Cl
  A: 103	B: 106	C: /	D: 10

structure: CCC(CC)NC(=O)c1ccc[nH]c1=S
  A: 102	B: 99	C: -21	D: 93*

structure: c1ccc(CSc2ncnc3sc4c(c23)CCCC4)cc1
  A: 104	B: 100	C: 5	D: /

structure: C=C[C@@H]1CN2CCC1C[C@@H]2[C@H](O)c1ccnc2ccccc12 (stereo partly specified)
  A: 99	B: 101	C: -2	D: -17

structure: O=C(O)CCCSc1nc2ccccc2s1
  A: 96	B: 95	C: -9	D: /

structure: N#CC(C(=O)NC1CC1)c1nc2ccccc2nc1N1CCCC1 (stereo unspecified)
  A: 45	B: 243	C: -41	D: 8

structure: ClC1C(Cl)C(Cl)C(Cl)C(Cl)C1Cl (stereo unspecified)
  A: 100	B: 102	C: -2	D: -9

structure: CCOC(=O)N1CCc2c(sc3[nH]c(=S)n(-c4ccccc4)c(=O)c23)C1
  A: 105	B: 106	C: -8	D: -6

structure: Cn1nccc1N1C(=O)c2ccccc2C1=O
  A: 106	B: 105	C: -9	D: -6

structure: O=C(O)CCNC(=O)c1ccccc1Cl
  A: 102	B: 108	C: /	D: -15

structure: O=C(C1CCCN1c1nnc(N2CCCC2=O)s1)N1CCc2ccccc2C1 (stereo unspecified)
  A: 99	B: 102	C: 7	D: 10

structure: COC(=O)NCC(c1cccnc1)N1CCOCC1 (stereo unspecified)
  A: 101	B: 103	C: 1	D: -5

structure: O=C(Cn1nnc(-c2cccc(C(F)(F)F)c2)n1)c1ccc2c(c1)OCCO2
  A: 99	B: 106	C: -13	D: 4

structure: CCOC(=O)c1ccccc1NC(=O)c1sc2nc(C)nc(N(CC)CC)c2c1C
  A: 102	B: 95	C: -21	D: -3

structure: N#CCNC(=O)c1cccc(I)c1
  A: 104	B: 100	C: -47	D: 1

structure: C=CCN=c1scc(-c2ccco2)n1/N=C(\C)CC
  A: 130	B: 125	C: -73	D: -11

structure: COC(=O)c1cc(CO/N=C(\C)c2ccc3c(c2)OCCO3)oc1C
  A: 103	B: 101	C: -17	D: 2

structure: Cn1c(C(=O)O)c(CNCc2cccnc2)c2ccccc21
  A: 99	B: 96	C: -3	D: -7

structure: O=C1NC(=O)C(Cc2ccccc2)(Cc2ccccc2)N1
  A: 103	B: 104	C: 3	D: -8

structure: N#Cc1cccc(NC(=O)CCCC(=O)Nc2cccc(C#N)c2)c1
  A: 108	B: 99	C: 2	D: /

structure: O=C(Cc1cccs1)N/N=C/C1CCCCC1
  A: 102	B: 104	C: -11	D: -3

structure: O=C(COc1ccccc1)Nc1cccc(-c2nc3cccnc3s2)c1
  A: 98	B: 101	C: -24	D: 14

structure: CCOc1ncccc1C(=O)NCc1ccc(S(N)(=O)=O)cc1
  A: 104	B: 98	C: -19	D: -6

structure: OC(COCc1ccc2c(c1)OCO2)CN1CCN(c2ccc(F)cc2)CC1 (stereo unspecified)
  A: 102	B: 101	C: -8	D: /

structure: CC(=O)Nc1ccc(NC(=O)C(C)OC(=O)Cc2c[nH]c3ccccc23)cc1 (stereo unspecified)
  A: /	B: /	C: 0	D: -6

structure: CCOC(=O)c1oc2c(c1C)/C(=N/OC(=O)c1ccccc1Cl)CCC2
  A: 101	B: 99	C: -29	D: -8

structure: CCOc1cc(C#N)cc(Br)c1OC(=O)c1oc2ccc(OC)cc2c1C
  A: 104	B: 96	C: -24	D: 22

structure: Cn1c(SCC(=O)N/N=C2/CC3CCC2(C)C3(C)C)nnc1-c1ccco1 (stereo unspecified)
  A: 102	B: 103	C: 3	D: -7

structure: c1cc(C(N2CCOCC2)N2CCOCC2)ccn1
  A: 108	B: 114	C: -9	D: -2

structure: CC(=O)Oc1ccc(N2C(=O)c3cccnc3C2=O)cc1
  A: 103	B: 104	C: 14	D: 11

structure: Cn1c(=NC(=O)c2cccc(F)c2)sc2ccccc21
  A: 109	B: 114	C: -4	D: -2

structure: CC1(C)C2CCC1(CS(=O)(=O)N1CCCC1C(=O)O)C(=O)C2 (stereo unspecified)
  A: 102	B: 106	C: 2	D: -11

structure: O=C(CSc1nc2ccccc2o1)N=Nc1c(O)n(CN2CCCCC2)c2ccccc12
  A: 102	B: 94	C: -15	D: 25

structure: CC(NC(=S)NCCN1CCOCC1)C1CC2CCC1C2 (stereo unspecified)
  A: 99	B: 98	C: -38	D: -4

structure: O=C1CC(NCc2ccccc2)C(=O)N1c1ccccc1 (stereo unspecified)
  A: 105	B: 103	C: -15	D: -1

structure: CC(=O)Oc1ccccc1C(=O)N(C)C
  A: 103	B: 99	C: -11	D: /

structure: C=CCn1c2ccccc2c2nnc(SCc3ccccc3F)nc21
  A: 100	B: 104	C: -17	D: /
